KCNQ2 block – KCNQ2 potassium channel inhibitors, primary screen, cell-based, CHO-K1, FluxOR thallium flux, B-score (AID 2156). Potassium voltage-gated channel subfamily KQT member 2 (Rattus norvegicus), O88943. 1.1% of 310,000 active. B-score at 10 µM. 20 min; active compounds read low; only compounds with negative scores are shown here; some inactives read as strong as hits;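 active = fluorescence ratio B-score at most minus 3 library SDs, with starting brightness B-score within 2 library SDs, cut at about -5.5 in these data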
Target sequence (O88943 whole entry, looked up): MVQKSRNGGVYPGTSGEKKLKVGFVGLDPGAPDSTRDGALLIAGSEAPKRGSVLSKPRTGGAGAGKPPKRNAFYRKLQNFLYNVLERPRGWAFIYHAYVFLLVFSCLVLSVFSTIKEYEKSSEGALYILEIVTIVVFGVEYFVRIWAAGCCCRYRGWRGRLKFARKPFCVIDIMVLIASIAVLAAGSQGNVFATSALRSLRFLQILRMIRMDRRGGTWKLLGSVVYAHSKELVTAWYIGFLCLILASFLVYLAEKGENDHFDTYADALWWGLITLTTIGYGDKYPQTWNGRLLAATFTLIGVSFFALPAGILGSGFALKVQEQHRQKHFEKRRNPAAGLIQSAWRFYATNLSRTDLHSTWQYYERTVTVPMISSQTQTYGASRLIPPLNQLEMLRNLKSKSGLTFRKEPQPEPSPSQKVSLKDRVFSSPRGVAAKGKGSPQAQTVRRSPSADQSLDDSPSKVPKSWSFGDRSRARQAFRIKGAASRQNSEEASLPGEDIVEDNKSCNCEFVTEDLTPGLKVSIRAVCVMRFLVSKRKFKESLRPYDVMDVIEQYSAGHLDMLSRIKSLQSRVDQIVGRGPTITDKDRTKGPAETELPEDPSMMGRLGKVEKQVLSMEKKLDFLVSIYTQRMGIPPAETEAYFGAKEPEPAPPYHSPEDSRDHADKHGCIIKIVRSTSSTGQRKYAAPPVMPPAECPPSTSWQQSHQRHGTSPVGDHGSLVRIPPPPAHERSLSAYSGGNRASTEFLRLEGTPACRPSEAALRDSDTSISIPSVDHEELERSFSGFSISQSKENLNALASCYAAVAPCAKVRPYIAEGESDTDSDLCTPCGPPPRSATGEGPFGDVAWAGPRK
KCNQ2 block baseline – also measured in KCNQ2 block; calls as there; B-score; measured here: initial fluorescence intensity artifact check;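 brightness before thallium and not channel activity; 0 = typical well and far values either way flag optical interference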
Numbers without * were called inactive; i = inactive. This is a subset. The share of hits here may be higher or lower than overall.

SMILES | KCNQ2 block | KCNQ2 block baseline
N#Cc1cccc(NC(=O)Cn2cnc(S(=O)(=O)N3CCCC3)c2)c1 | i | 0.77
CSc1ncccc1C(=O)Nc1nc(C(C)(C)C)cs1 | i | -1.49
COc1ccc(CN2CCN(C(=O)CC(C)C)CC2)cc1Br | i | 0.56
CCOC(=O)NC(O)C(=O)c1cccs1 (stereo not given) | i | 0.1
COc1ccc(-n2c(SCC(=O)NCc3ccco3)nc3c([nH]c4ccccc43)c2=O)cc1 | i | -0.03
CCOC(=O)c1cnn(-c2cc(Oc3ccccc3C)ncn2)c1N | i | -1.72
Cc1ccc(S(=O)(=O)N2CCOCC2)cc1NC(=O)COC(=O)c1n[nH]c(=O)c2ccccc12 | i | 1.4
Cc1ccc(SCC(=O)c2ccc(CC(=O)O)s2)cc1 | i | -0.84
Cc1ccc2nc3c(cc(C(=O)NCCCn4ccnc4)n3C)c(=O)n2c1 | i | 3.11
CCCNC(=S)N(Cc1ccccc1)Cc1nc2ccccc2c(=O)[nH]1 | i | -1.73
O=C1C2C3C=CC(C3)C2C(=O)N1CCCCN1C(=O)C2C3C=CC(C3)C2C1=O (stereo not given) | i | 0.52
CCc1cc(=O)oc2c(C)c(OS(C)(=O)=O)ccc12 | i | 0.52
O=C(c1cccs1)c1cn(CC(=O)N2CCc3ccccc3C2)c2ccccc12 | i | -0.11
Cc1ccc(Oc2nc(-c3ccccn3)nc3ccccc23)cc1 | i | -1.5
CCOC(=O)C1=C(N)Oc2cc(O)ccc2C1c1cccc([N+](=O)[O-])c1 (stereo not given) | i | -1.29
CC(=O)Nc1ccc(S(=O)(=O)N2c3ccccc3NC(=O)CC2C)c(Cl)c1 (stereo not given) | i | 0.42
COc1ccccc1NC(=O)CSc1nnc(-c2ccncc2)n1CC1CCCO1 (stereo not given) | i | -0.27
CC(=O)C1=C(C)OC2(O)c3ccccc3C(=O)C12O (stereo not given) | i | -1.75
OCC(O)CN(c1ccccc1)c1ccccc1 (stereo not given) | i | 0.26
COc1ccc(C(=O)NCCCNC(=O)c2cnccn2)cc1 | i | -1.6
NC(=S)N1CCCc2ccccc21 | i | 0.44
CCOC(=O)C(C)Sc1nc2c(c(=O)[nH]c(=O)n2C)n1Cc1ccc(Cl)cc1 (stereo not given) | i | 0.26
CSC1=N/C(=C\c2ccc3c(c2)OCO3)C(=O)S1 | i | -0.76
OC(COc1ccc2ccccc2c1Br)Cn1cnc(-c2ccccc2)c1 (stereo not given) | i | 0.21
COc1ccc(C2CC(c3ccccc3)=NN2c2ccc(C(N)=O)cc2)cc1 (stereo not given) | i | -0.03

The closing two records of the section above come first, to join the parts:
SMILES | KCNQ2 block | KCNQ2 block baseline
OC(COc1ccc2ccccc2c1Br)Cn1cnc(-c2ccccc2)c1 (stereo not given) | i | 0.21
COc1ccc(C2CC(c3ccccc3)=NN2c2ccc(C(N)=O)cc2)cc1 (stereo not given) | i | -0.03
COc1ccccc1N1CCN(CC(O)c2ccccc2)CC1 (stereo not given) | i | 1.28
Cc1ccc2[nH]c(CNC(=O)C3CCCCC3)cc2c1 | i | 1.35
COc1ccc([N+](=O)[O-])cc1NC(=O)C1(c2ccccc2)CCOCC1 | i | -1.12
COc1ccccc1N1CCN(C(=O)c2ccc(N(C)S(=O)(=O)c3ccccc3)cc2)CC1 | i | -0.05
O=C(c1ccc2c(c1)OCO2)N1CCN(c2cccc(C(F)(F)F)c2)CC1 | i | 0.7
CC(=O)O[C@]1(C(C)=O)CC[C@H]2[C@@H]3C=C(C)C4=CC(=O)CC[C@]4(C)[C@H]3CC[C@@]21C | i | 1.07
CCc1nnc(NC(=O)/C=C/c2ccco2)s1 | i | 0.42
CN(C(=O)CC1C(=O)NCCN1C/C=C/c1ccccc1)C1CCOCC1 (stereo not given) | i | -1.13
CCOc1cccc2sc(N(CCCN(C)C)C(=O)c3ccc(S(=O)(=O)N4CCCCCC4)cc3)nc12 | i | 0.03
CCn1c(C)cc(/C=C2/SC(=S)NC2=O)c1C | i | -1.36
N#CC1(c2ccc(NC(=O)c3ccccc3F)cc2)CCCC1 | i | -0.95
Cn1c(NC(=O)Cc2cccc3ccccc23)cc(=O)n(C)c1=O | i | 0.12
O=C(CCc1nc2ccccc2[nH]1)NCc1ccc2c(c1)OCO2 | i | 0.47
Cc1cccc(NC(=O)C2CCCN(c3nc(C)cc(C)n3)C2)c1 (stereo not given) | i | -0.87
COc1ccccc1N1CCN(C2CCN(C(=O)COc3ccccc3)CC2)CC1 | i | -0.96
CC(NC(=O)c1cc(=O)[nH]c2ccc(Br)cc12)c1ccccc1 (stereo not given) | i | -0.72
COc1cc(OC)c(N(C)C(=O)CCNC(=O)Cn2cnc3ccccc3c2=O)cc1Cl | i | 0.39
CCOc1ccccc1N1CCN(c2nc3ccccc3nc2C(C#N)C(=O)OC)CC1 (stereo not given) | i | -1.53
O=C(CSc1nnc2sc3ccccc3n12)c1ccco1 | i | 2.19
CC(=O)Nc1ccc(S(=O)(=O)NC(CC(=O)O)c2ccc(OC(C)C)cc2)cc1 (stereo not given) | i | 1.23
O=C1c2ccccc2C(=O)N1n1cccc1 | i | 1.66
Brc1ccc(-n2cc(-c3ccccc3)c3c(NN4CCOCC4)ncnc32)cc1 | i | 1.34
CC(=O)c1oc2ccccc2c1NC(=O)CN1CCCCC1 | i | -0.08
COc1ccc(N2CCN(C(=O)CCC(=O)NNc3nc4ccccc4c4nc(C)nn34)CC2)cc1 | i | 0.57
COCCCn1nnnc1SCC(=O)Nc1ccc2c(c1)OCCO2 | i | 0.35
SMILES | KCNQ2 block | KCNQ2 block baseline
CCOC(=O)c1cnc2c(OC)cccc2c1N1CCN(c2ccc(OC)cc2)CC1 | i | -2.83
CC(NC(=O)c1cc(-c2ccccc2)nc2ccccc12)C1CCCO1 (stereo not given) | i | 1.92
COc1cc(NC(C)=O)ccc1-c1cc2ccccc2oc1=O | i | 0.31
CN1CCN(c2ccc(C(=O)NC3CCCCC3)cc2[N+](=O)[O-])CC1 | i | -0.67
CC(=O)c1cccc(NC(=O)Cn2cnc(S(=O)(=O)N3CCOCC3)c2)c1 | i | 0.18
N#Cc1c2ncn(CC(=O)c3ccc(Br)cc3)c(=O)c2c2n1CCC2 | i | -0.79
Fc1ccc(CNc2nc(-c3ccccc3)nc3ccccc23)cc1 | i | 1.37
COc1ccc2c(c1)O[C@H](c1ccc3c(c1)OCO3)[C@@H](O)C2=O | i | 1.93
Cn1c(=O)n(C)c2cc(S(=O)(=O)NCc3ccccc3)ccc21 | i | 0.1
COc1ccccc1/C=C/C(=O)N1CCC(c2ccccc2)C1 (stereo not given) | i | 0.93
CC1(C)C(=O)Nc2ccccc2N1C(=O)CSc1nnc2ccccn12 | i | 0.74
CCNCc1cc(Cl)c(OCc2ccccc2)c(OCC)c1 | i | 0.68
CCC(C)c1ccc2oc(-c3ccc(NC(=O)Cn4cnc5c(=O)n(C)c(=O)n(C)c54)cc3)nc2c1 (stereo not given) | i | 0.38
N#CC(C#N)=C1NC2(CCCC2)Cc2ccccc21 | i | 0.7
CCOc1ccc(CCNC(=O)COC(=O)CNS(=O)(=O)c2ccc(C)cc2)cc1OCC | i | 1.54
COc1ccc(N2CCN(CC(O)COC(c3ccccc3)c3ccccc3)CC2)cc1 (stereo not given) | i | -1.63
O=C(NCc1nc2ncc(Br)cc2[nH]1)c1ccccc1 | i | 0.1
COc1ccc(Cl)cc1S(=O)(=O)NC(C)C(=O)NCCCn1ccnc1 (stereo not given) | i | 2.52
CC[n+]1ccc2cc(OC)c(OC)cc2c1Cc1ccc(OC)c(OC)c1 | i | 2.15
CCOC(=O)N1CCN(C(=O)c2ccc(OC)cc2)CC1 | i | -0.99
CCN1CCN(C(=O)C(=O)c2cn(CC(=O)N3CCCCCC3)c3ccccc23)CC1 | i | -2.3
COc1ccc(C)cc1NC(=O)CN1C(=O)COc2ccc(C)cc21 | i | -0.9
C=CCC1(C)C(=O)N(c2ccccc2)c2ccccc21 (stereo not given) | i | 0.23
COc1ccc(S(=O)(=O)Cc2ccc(C(=O)NCCc3cc(OC)ccc3OC)o2)cc1 | i | -0.38
NC(=O)c1ccccc1NC(=O)c1ccc2c(c1)OCO2 | i | -0.83

Ordered by molar mass (ascending): part of the list above
SMILES | KCNQ2 block | KCNQ2 block baseline
N#CC(C#N)=C1NC2(CCCC2)Cc2ccccc21 | i | 0.7
C=CCC1(C)C(=O)N(c2ccccc2)c2ccccc21 (stereo not given) | i | 0.23
NC(=O)c1ccccc1NC(=O)c1ccc2c(c1)OCO2 | i | -0.83
CCOC(=O)N1CCN(C(=O)c2ccc(OC)cc2)CC1 | i | -0.99
COc1ccccc1/C=C/C(=O)N1CCC(c2ccccc2)C1 (stereo not given) | i | 0.93
COc1cc(NC(C)=O)ccc1-c1cc2ccccc2oc1=O | i | 0.31
COc1ccc2c(c1)O[C@H](c1ccc3c(c1)OCO3)[C@@H](O)C2=O | i | 1.93
Fc1ccc(CNc2nc(-c3ccccc3)nc3ccccc23)cc1 | i | 1.37
O=C(NCc1nc2ncc(Br)cc2[nH]1)c1ccccc1 | i | 0.1
COc1ccc(C)cc1NC(=O)CN1C(=O)COc2ccc(C)cc21 | i | -0.9
CN1CCN(c2ccc(C(=O)NC3CCCCC3)cc2[N+](=O)[O-])CC1 | i | -0.67
CC1(C)C(=O)Nc2ccccc2N1C(=O)CSc1nnc2ccccn12 | i | 0.74
CC[n+]1ccc2cc(OC)c(OC)cc2c1Cc1ccc(OC)c(OC)c1 | i | 2.15
CC(=O)c1cccc(NC(=O)Cn2cnc(S(=O)(=O)N3CCOCC3)c2)c1 | i | 0.18
COc1ccc(Cl)cc1S(=O)(=O)NC(C)C(=O)NCCCn1ccnc1 (stereo not given) | i | 2.52
CCOC(=O)c1cnc2c(OC)cccc2c1N1CCN(c2ccc(OC)cc2)CC1 | i | -2.83
COc1ccc(N2CCN(CC(O)COC(c3ccccc3)c3ccccc3)CC2)cc1 (stereo not given) | i | -1.63
CCOc1ccc(CCNC(=O)COC(=O)CNS(=O)(=O)c2ccc(C)cc2)cc1OCC | i | 1.54

The results go on.
SMILES | KCNQ2 block | KCNQ2 block baseline
CC(NC(=O)[C@H](C)NC(=O)c1ccco1)c1ccc(S(N)(=O)=O)cc1 (stereo not given in full) | i | 2.24
CN(C)c1nnnn1Cc1ccccc1 | i | -0.17
Cc1nc2sc(C(c3ccc(Cl)cc3)N3CCN(c4ccccc4F)CC3)c(O)n2n1 (stereo not given) | i | 0.45
Cc1ccc2nc(CSc3nnc(-c4ccncc4)n3C)cc(=O)n2c1 | i | -0.04
Cc1cccc(N2CCN(CC(=O)N(C)Cc3ccccc3)CC2C)c1 (stereo not given) | i | -0.08
COc1cc(C(=O)c2ccccc2)c(OC)cc1C(=O)Nc1ccc(O)cc1 | i | 1.04
O=C1c2ccccc2C(=O)N1CCOc1ccccc1 | i | 2.32
COc1ccc(CNC(=O)C2CC(c3cccc([N+](=O)[O-])c3)=NO2)cc1 (stereo not given) | i | 1.18
O=C(c1cccc(Br)c1)N1CCN(C(=O)c2cccc(Br)c2)CC1 | i | 0.21
COc1ccc(CCC(=O)OC(C)C(=O)c2ccc(C)cc2)cc1 (stereo not given) | i | -2.18
O=C(CCn1c(=O)oc2ccccc21)NCCCN1CCCC1=O | i | 0.73
CN1CCCN(C(=O)c2cc(-c3cccc4ccccc34)nc3ccccc23)CC1 | i | -1.12
Cc1nc2ccc(C(=O)OCc3nnc(-c4ccccc4)o3)cc2nc1C | i | -0.62
Cc1nc(Cl)c(C(=O)NC(C)(C)C)c(C)c1Cl | i | -0.11
CCOc1ccc(C2C(C#N)=C(N)Oc3nc[nH]c(=O)c32)cc1OC (stereo not given) | i | -0.35
CC(C)CC(=O)NC(=S)NNC(=O)c1cccc([N+](=O)[O-])c1 | i | -0.5
COc1ccc(NC(=O)c2cc(C)nn2-c2ccccc2)cc1 | i | -0.75
c1ccc(-n2ncc3c(N4CCC5(CC4)OCCO5)ncnc32)cc1 | i | 0.42
CC1=CC=CC2=N/C(=N\S(=O)(=O)c3ccc(F)cc3F)c3ccccc3CN12 | i | 0.57
Cc1nn(Cc2ccccc2)c(Cl)c1/C=N/NC(=O)c1cccnc1 | i | 0.29
Fc1cccc(CN2CCN(C(=S)NCCc3ccccc3)CC2)c1 | i | 0.15
Cc1cc(=O)c(C(=O)O)nn1-c1ccccc1C(F)(F)F | i | 1.59
CC(=O)Oc1ccc([N+](=O)[O-])cc1N1C(=O)c2ccccc2C1=O | i | 0.3
O=C(NCCN1CCCC1)c1ccc2c(c1)N(Cc1cccc(Cl)c1)C(=O)c1ccccc1S2(=O)=O | i | -0.02
Cc1cnc(C(=O)NCC(c2ccccc2)c2ccccc2)cn1 | i | -0.08
SMILES | KCNQ2 block | KCNQ2 block baseline
COc1cccc(Sc2cc(N3CCOCC3)nc(-c3ccccc3)n2)c1 | i | -0.67
Cc1ccc(N2C(=O)CC(Cc3cc(C)cc(C)c3)C2=O)cc1 (stereo not given) | i | -1.55
CCOc1ccccc1-c1nnc(SCC(=O)NC2CC2)n1CC | i | -0.6
Cc1ccc(C(=O)NC23CC4CC(CC(C4)C2)C3)c(Cl)c1 | i | -0.36
O=C(COc1ccccc1)NCc1nnc2c3ccccc3c(-c3ccccc3)nn12 | i | 0.61
Cc1cc(-c2n[nH]c(=S)n2/N=C/c2ccc(C)o2)n[nH]1 | i | -0.05
C1CCc2c(nc3nnnn3c2N2CCOCC2)C1 | i | -0.73
Cc1csc(=O)n1CCC(=O)OCC(=O)c1ccc(Br)cc1 | i | 2.6
O=C(COc1ccc2ccccc2c1)N1CCN(c2ccccc2O)CC1 | i | -1.8
COc1ccc(/C=C(\NC(=O)c2ccc(C)cc2)C(=O)NCCCN2CCOCC2)cc1OC | i | 1.99
CCN(CC)CCN(C(=O)C1=COCCO1)c1nc2cc(C)cc(C)c2s1 | i | -0.61
COc1ccc(CN2C(=O)C(C)Oc3ccccc32)cc1 (stereo not given) | i | 1.28
COC(=O)C1=C(C(=O)OC)[C@@H]2N(Cc3ccccc3)c3ccccc3[C@@]23C[C@@H](C(=O)OC)N(C(=O)C2CCC2)C3=N1 | i | -0.61
CC(=O)N1CCN(CC(=O)Nc2cc(S(=O)(=O)N3CCOCC3)ccc2C)CC1 | i | -0.36
COc1cc(/C=C2\SC(=S)N(CCC(=O)Nc3ccccc3)C2=O)cc(OC)c1OC | i | -0.03

Assay outcomes: PubChem BioAssay, Johns Hopkins Ion Channel Center
